# HPGD inh = qHTS Assay for Inhibitors of HPGD (15-Hydroxyprostaglandin Dehydrogenase) | AID 894, 2007 | purified HPGD, NADH fluorescence kinetic, PGE2 substrate | Potency, µM, for the others: top-dose activity change, negative = inhibition, most hits filed as inhibitors | 15-hydroxyprostaglandin dehydrogenase [NAD(+)] (Homo sapiens), P15428 | actives 4.3% (n = 150,000); active = well fitted inhibition curve with a large enough effect (not every such curve was filed as active); inconclusive = small, poorly fitted or top-dose-only effect, or another doubt; inactive = no such curve, though single readings can be large or run the other way;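 note: top concentration of the series not given in the record; plate controls included wells without enzyme; inactives centre near -10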
# Target sequence (P15428 whole entry, looked up): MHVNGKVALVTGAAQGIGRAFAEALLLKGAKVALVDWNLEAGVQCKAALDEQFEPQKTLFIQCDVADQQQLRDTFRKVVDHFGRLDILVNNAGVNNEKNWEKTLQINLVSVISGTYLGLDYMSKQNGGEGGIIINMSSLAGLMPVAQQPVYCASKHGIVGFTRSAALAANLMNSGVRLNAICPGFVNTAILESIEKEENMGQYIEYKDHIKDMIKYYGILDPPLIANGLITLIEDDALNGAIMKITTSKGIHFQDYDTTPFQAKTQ
#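 NADH formation kinetics: reaction with 30 uM PGE2 and 1 mM NAD+ (final), 20 nM enzyme, Tris-HCl pH 8 with Tween 20, after 15 min compound preincubation at room temperature. Fluorescence change, last versus first of five reads.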
# Starred values were filed as active, the others as inactive; ? = inconclusive; & = joins results of further samples; [ ] = another dose, or the depositor's remark. % is set by controls: 0 for no effect and ±100 for the full control effect; potency is the fitted concentration of half-maximal effect. This is a subset, so the mix of outcomes need not match the whole.
mol | HPGD inh
CCc1nnc(NC(=O)CSc2nnc(-c3ccncc3)n2Cc2ccccc2)s1 | -8%
COc1ccc(OC)c(-c2cc(C(=O)NCCCn3ccnc3)no2)c1 | -11%
CCOC(=O)C1C(C(C)=O)=C(c2ccccc2)c2ccccc2N1S(=O)(=O)C(F)(F)F (stereo unspecified) | ?
C=CCn1c(SCC(=O)Nc2ccc(NC(=O)c3ccco3)c(OC)c2)nnc1-c1ccncc1 | -15%
O=C(COc1ccc(Cl)cc1)NCc1nnc(SCC(=O)NCc2ccc3c(c2)OCO3)o1 | -1%
Cc1cccc2cc(CN(CCc3ccccc3)C(=O)N3CCOCC3)c3nnnn3c12 | -4%
Cc1ccc(S(=O)(=O)NNC(=O)c2sccc2-n2cccc2)cc1 | -7%
CCOc1ccc(N2C(=O)/C(=C\c3ccccc3OC)S(=O)(=O)C2c2cccc([N+](=O)[O-])c2)cc1 (stereo unspecified) | -15%
COc1ccc(C(c2nnnn2C2CCCCC2)N2CCN(c3ccc(OC)cc3)CC2)cc1 (stereo unspecified) | -14%
COC(=O)c1[nH]c2ccccc2c1NC(=O)/C=C/c1ccc2c(c1)OCO2 | -7%
O=C(NNC(=O)c1cccs1)c1ccc(Cl)c(Cl)c1 | -5%
CCC1(C)Cc2c(sc3nc(NC)n(C)c(=O)c23)CO1 (stereo unspecified) | ?
Cc1ccc(C)c(N(CC(=O)Nc2cc(Cl)ccc2Oc2ccccc2)S(C)(=O)=O)c1 | -14%
O=C(OC1CCN(c2ccc([N+](=O)[O-])cc2)CC1)c1ccccc1 | -14%
C=CCN1C(=O)CN=C1Nc1ccccc1 | 2%
C=CCn1c(SCC(=O)Nc2ccc3c(c2)OCO3)nnc1-c1ccccc1O | -19%
O=C(CCn1nnc2ccccc21)N1CCC(O)(c2cccc(F)c2)CC1 | -11%
Cc1cc(NC(=O)CSc2nc3sc(C)c(C)c3c(=O)n2C2CCCC2)no1 | -5%
COc1cccc(-c2n[nH]c(=S)n2Cc2ccco2)c1OC | -21%
O=C(Cn1c(C(=O)NCc2ccco2)cc2sccc21)c1ccccc1 | -21%
Cc1ccc(S(=O)(=O)N2CCOCC2)cc1C(=O)Nc1ccccn1 | 0%
CSc1nc(N)c(C#N)c(-c2ccc(Cl)cc2)c1C#N | -18%
CCOc1ccc(C2C(C#N)=C(N)N(c3sc4c(c3C#N)CCCC4)C3=C2C(=O)CCC3)cc1 (stereo unspecified) | -7%
Cc1cccc(NC(=O)CSc2nnc(-c3cnccn3)n2Cc2ccco2)c1 | -10%
CCOc1ccccc1NC(=S)NCc1ccco1 | -19%
CCOC(=O)C(C(=O)N(C)C)c1ncc(C(F)(F)F)cc1Cl (stereo unspecified) | -11%
Cc1cccc(CNc2cc(-c3ccc(N(C)C)cc3)ncn2)c1 | ?
C/C(=N\NC(=O)C1COc2ccccc2O1)c1ccc(C)o1 (stereo unspecified) | -12%
Cc1cc(C)n2nc(SCC(=O)Nc3ccc(F)cc3)nc2n1 | -18%
O=C(/C=C1\NCC2c3ccccc3CCN2C1=O)c1ccccc1 (stereo unspecified) | -19%

# Five of the entries above in order of their number in HPGD inh, ascending.
mol | HPGD inh
CCOc1ccc(N2C(=O)/C(=C\c3ccccc3OC)S(=O)(=O)C2c2cccc([N+](=O)[O-])c2)cc1 (stereo unspecified) | -15%
O=C(OC1CCN(c2ccc([N+](=O)[O-])cc2)CC1)c1ccccc1 | -14%
C/C(=N\NC(=O)C1COc2ccccc2O1)c1ccc(C)o1 (stereo unspecified) | -12%
O=C(NNC(=O)c1cccs1)c1ccc(Cl)c(Cl)c1 | -5%
O=C(COc1ccc(Cl)cc1)NCc1nnc(SCC(=O)NCc2ccc3c(c2)OCO3)o1 | -1%

# Next section
mol | HPGD inh
Cn1c(=O)n(C)c2cc(CNc3ccc(N4CCOCC4)c(C(=O)O)c3)ccc21 | -18%
Clc1ccc(-c2cnc3ccccc3n2)cc1 | -12%
CCCCOC(=O)CSc1n[nH]c(=O)[nH]c1=O | -22%
Cc1c[nH]c(=O)n(CCCN2CCN(c3ccccc3OCC(F)(F)F)CC2)c1=O | -2%
Nc1c(NCCCN2CCOCC2)c2ccccc2oc1=O | -16%
COc1ccccc1C(=O)Nc1nnc(C)s1 | 1%
CCOC(=O)C1CCN(S(=O)(=O)c2cnc[nH]2)CC1 | 4%
Nn1c(SCC(=O)Nc2ccc3c(c2)OCO3)nnc1C1CCCCC1 | -5%
COCCCNC(=O)CS(=O)Cc1nc(-c2ccccc2C)oc1C (stereo unspecified) | -3%
Cc1ccnc(NC(=O)C2COc3ccccc3O2)c1 (stereo unspecified) | -16%
Cc1nc2ccccc2c2c1C(=O)N(C1CCCCCCC1)C2=O | -9%
CCOC(=O)c1c(-c2ccc(C)cc2)csc1NC(=O)c1cc2ccccc2oc1=O | -20%
Cn1c(=O)c2cc(NC(=O)c3ccccc3Cl)c(=O)oc2n(C)c1=O | -12%
Cn1c(CNc2ccccc2O)nc2ccccc21 | 0%
O=C(N/N=C\c1ccc(-c2ccccc2[N+](=O)[O-])o1)C1COc2ccccc2O1 (stereo unspecified) | -15%
CC(C)COc1ccc(C(=O)OCCN2CCOCC2)cc1 | ?
CC(C)Cn1c(SCC(=O)N2CCCCC2)nc2ccccc2c1=O | -10%
CCOC(=O)C1=C(C)NC(=S)NC1c1ccc(OC(=O)c2ccco2)cc1 (stereo unspecified) | -10%
Cc1ccc2c(c1)c1c(n2CC(O)Cn2nc(C)c(Br)c2C)CCCC1 (stereo unspecified) | ?
CC1CCN(C(=O)Nc2cccc(NC(=O)N3CCC(C)CC3)c2)CC1 | -2%
C1CCN(Cc2nnnn2C2CCCC2)CC1 | -2%
COc1ccccc1N=C1SC(C(=O)Nc2ccc(F)cc2)CC(=O)N1C (stereo unspecified) | -6%
CCOCCSc1nc2c(c(-c3cccs3)c1C#N)CC/C2=C/c1cccs1 | ?
COC(=O)c1ccc(NC(C)C(=O)OC)c([N+](=O)[O-])c1 (stereo unspecified) | 1%
CN1CCN(CC(=O)N/N=C\c2c[nH]c3ccccc23)CC1 | -20%
COCCN=C1OC(=O)N2C(=O)C3=C4C(C[C@H]5C(=O)N(CC(=O)OC)C(=O)[C@H]5[C@H]4[C@@]12Cc1ccccc1)[C@H]1C(=O)N(CC(=O)OC)C(=O)[C@H]1[C@H]3C (stereo partly specified) | -8%
COc1ccc2c(c1OC)C(=O)OC2Nc1ncc(Br)cc1Br (stereo unspecified) | 2%
O=C1CCCc2ccccc2N1Cc1ccccc1Cl | -13%
O=C1c2ccccc2C(=O)N1CCc1nc(-c2ccncc2)no1 | -9%
CC(=O)N1CCN(c2ccc(NC(=O)c3ccc4c(c3)OCCO4)cc2)CC1 | -5%

mol | HPGD inh
COc1ccccc1NC(=O)CSc1nnc(CC(=O)Nc2cccc(C(F)(F)F)c2)n1C | -4%
COc1cccc(NS(=O)(=O)Cc2ccccc2)c1 | -28%
Nc1nnc(SCC(=O)Nc2ccc3c(c2)OCCO3)s1 | -6%
Cc1ccc(N=CC2=C(O)CC(c3ccc(Cl)cc3)CC2=O)cc1 (stereo unspecified) | 479%[activator]
O=C(CN1CCC(O)(c2ccccc2F)CC1)NCCc1c[nH]c2ccccc12 | -17%
CCCCNC(=O)Nc1ccccc1Br | -3%
C=CCn1c(SCC(=O)Nc2sccc2C(N)=O)nc2ccccc2c1=O | -6%
O=C(Nc1ccc(S(=O)(=O)N2CCCCCC2)cc1)C1CCCO1 (stereo unspecified) | -22%
CC(C)C[C@@H]1NC(=O)[C@H](Cc2ccc(O)cc2)NC(=O)[C@H](CCC(N)=O)NC(=O)c2cc([N+](=O)[O-])cc(I)c2NCC[C@@H](C(N)=O)NC1=O | -5%
O=C(/C=C/c1cccc([N+](=O)[O-])c1)c1ccc2c(c1)OCCO2 | -2%
CC1=C(C(=O)O)N2C(=O)[C@@H](NC(=O)[C@H](N)c3ccccc3)[C@H]2SC1 | ?
N#Cc1cn(Cc2cccc(Cl)c2)c2ccccc12 | -21%
C/C(CC(=O)Nc1ccc(N(C)C)cc1)=N\NC(=O)c1ccccn1 | -9%
Cc1ccc(C(=O)Nc2sc3c(c2C(=O)O)CCCCC3)o1 | 14µM*
O=C(Nc1ccccc1)Nc1ccc(S(=O)(=O)N2CCCCC2)cc1 | -8%
CC(c1nnc(SCC(=O)Nc2ccc3[nH]c(=O)[nH]c3c2)n1Cc1ccccc1)N(C)C (stereo unspecified) | -12%
CCN(CC)CCN1C(=O)C(=O)/C(=C(/O)c2c(C)[nH]c(C(=O)OC)c2C)C1c1ccccc1OC (stereo unspecified) | -10%
Cc1ccccc1C(=O)NCCSc1ccccc1 | 20µM*
CSc1nnc2c3c4c(sc3c(=O)n(-c3ccccc3)n12)CC(C)(C)OC4 | -8%
O=C1CC2C(CC(OC(=O)c3ccc(-c4ccccc4)cc3)C2CO)O1 (stereo unspecified) | -16%
Cc1ccc(S(=O)(=O)N(C)C)cc1NC(=O)CSc1nc2ccccc2[nH]1 | 1%
COCC(=O)N1CCC2(CC1)CCN(C(=O)Nc1cccc(F)c1)CC2 | 1%
COc1ccccc1NC(=O)COc1ccc(C(=O)OCC(=O)N(C(C)C)C(C)C)cc1OC | -27%
O=C1c2cccnc2C(O)N1Cc1ccco1 (stereo unspecified) | 5%
O=C(NCc1ccccc1)c1cc(S(=O)(=O)N2CCC3(CC2)OCCO3)ccc1F | -10%
CC(=O)NC(C)C(c1cccs1)N1CCN(c2ccccc2)CC1 (stereo unspecified) | -3%
CCC(C)NC(=O)c1csc2c1CCCCC2 (stereo unspecified) | -15%
O=C(c1c(Cl)nc2sccn12)N1CCN(c2cccc(Cl)c2)CC1 | ?
O=C(Nc1ccc(S(=O)(=O)N2CCN(c3ccccc3)CC2)cc1)c1cccs1 | 269%[activator]
CCOC(=O)c1cc(NC(=O)Nc2nc3ccccc3s2)c(C)nc1C | -8%

mol | HPGD inh
CC[C@H](C)[C@H](NC(=O)OCC1c2ccccc2-c2ccccc21)C(=O)O | -3%
Cc1ccc(Cn2nnc3c(=O)[nH]c(C4CCN(S(=O)(=O)c5ccc(F)cc5)CC4)nc32)cc1 | -16%
COC(=O)[C@@H]1C[C@@H]2CC[C@@H](O)C[C@@H]2N1Cc1ccc(Cl)cc1 | -8%
CCCCN(CCCC)c1cn[nH]c(=O)c1Cl | -19%
CCCCCC1CC(CC(C)C(=O)Nc2nncs2)C(=O)O1 (stereo unspecified) | -10%
Cc1ccc(NC(=O)/C(=C\c2ccc([N+](=O)[O-])cc2)NC(=O)c2ccccc2)cc1 | -10%
CCOC(=O)c1c(C)[nH]c(C(=O)O)c1C | -12%
O=C(CC1CC2CCC1C2)NCc1cccs1 (stereo unspecified) | 16µM*
O=C(CSc1nnc(-c2ccco2)c(-c2ccco2)n1)Nc1ccccc1 | 25µM*
O=C(Nc1ccc(Cl)c(S(=O)(=O)N2CCOCC2)c1)c1ccccc1-c1ccc(C(F)(F)F)cc1 | -23%
CC(=O)Nc1cc(C)c(S(C)(=O)=O)c(C)c1 | -2%
NS(=O)(=O)c1ccc(N/C=C\C(=O)c2ccc3ccccc3c2)cc1 | -14%
Cc1nc(-n2ncc(C#N)c2N)c2c3c(sc2n1)CCC3 | -19%
O=c1ccn([C@@H]2O[C@H](CO)[C@@H](O)[C@H]2O)c(=O)[nH]1 | -3%&2%
O=C(N/N=C\c1ccc(Cl)cc1Cl)c1sccc1-n1cccc1 | -13%

# Taken from the listing, 2 compounds:
mol | HPGD inh
Cc1ccc(C(=O)Nc2sc3c(c2C(=O)O)CCCCC3)o1 | 14µM*
O=C(Nc1ccccc1)Nc1ccc(S(=O)(=O)N2CCCCC2)cc1 | -8%

# Reformatted: 2 of the compounds above
CCOC(=O)c1cc(NC(=O)Nc2nc3ccccc3s2)c(C)nc1C
- HPGD inh = -8%

CC[C@H](C)[C@H](NC(=O)OCC1c2ccccc2-c2ccccc21)C(=O)O
- HPGD inh = -3%
